RE007 growth inh: less growth of the S. pombe RE007 Vpr strain | 360,000 tested, 0.21% active | AID 651644 | S. pombe RE007 Vpr strain, BacTiter-Glo ATP luminescence, 24 h; control for the full effect not named in the record | Potency, µM (series often up to 92.2 µM), for the others: top-dose activity change, negative = less growth; active = well fitted falling curve with a large enough effect; inconclusive = small, poorly fitted or top-dose-only effect; inactive = no such curve, though single readings can be large or run the other way;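 further: on the % scale 0 is the no-effect control and ±100 the full control effect; nearly all actives have a fitted effect of over 50% in size; the assay follows cell death caused by Vpr and the record does not say whether a fall means rescue or toxicity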
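Fission yeast RE007 carrying one integrated HIV-1 vpr copy, seeded at OD 0.01 in PMG+AL medium with 23 nL pinned compound. Grown 24 h at 30 degrees; viability read by BacTiter-Glo luminescence after 5 min.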
Cruzain inh Det: cruzain (T. cruzi) inhibition with detergent; AID 1478; purified cruzain, Z-FR-AMC fluorescence, 0.01% Triton; 200,000 tested, 0.43% active; Potency, µM, inactives show max response, negative = inhibition, actives largely listed as inhibitors; active means well fitted curve in the direction sought with a large enough effect; inconclusive means small, poorly fitted or top-dose-only effect, or another doubt; inactive means no such curve, though single readings can be large; an effect the other way counts as inactive or inconclusive;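 further: plate controls were neutral wells for no effect and buffer without enzyme for full effect; nearly all actives have a fitted effect of over 40% in size; top concentration of the series not given in the record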
Target sequence (P25779 123-467 limits assumed): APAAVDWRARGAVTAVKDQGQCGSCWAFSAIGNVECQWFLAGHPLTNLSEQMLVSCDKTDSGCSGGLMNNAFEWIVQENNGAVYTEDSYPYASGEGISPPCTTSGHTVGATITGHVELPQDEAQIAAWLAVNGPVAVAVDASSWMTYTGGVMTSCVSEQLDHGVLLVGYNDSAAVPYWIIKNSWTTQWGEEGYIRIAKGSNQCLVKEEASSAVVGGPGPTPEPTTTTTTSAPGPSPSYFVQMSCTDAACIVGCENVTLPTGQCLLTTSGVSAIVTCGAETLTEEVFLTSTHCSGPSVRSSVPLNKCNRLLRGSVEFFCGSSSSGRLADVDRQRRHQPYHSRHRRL
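Steps: dispense cruzain (1.5 nM final) in acetate buffer pH 5.5 with DTT and 0.01% Triton X-100; pin-transfer compounds; incubate 15 min RT; add Z-FR-AMC (2 uM final); read fluorescence every 30 s, using the 60 s intensity change.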
SARS PLP yeast: blocks SARS-CoV papain-like protease in a yeast assay; S. cerevisiae expressing SARS-CoV PLpro, growth rescue; control for the full effect not named in the record; Potency, µM (top dose mostly 32.9 µM), without a hit: at the top dose activity, positive = growth rescue; 330,000 tested, 0.19% active; further: 0% is about no effect; nearly all actives have a fitted effect of over 55% in size; growth read by luminescence after 48 h
StopGo reporter: lowers the luciferase signal of an FMDV 2A StopGo reporter; human cells with a luciferase reporter of 2A StopGo recoding; control for the full effect not named in the record; Potency, µM (doses to about 57.9 µM), for the others: at the top dose signal change, negative = less light; 410,000 tested, 1.2% active; active = well fitted falling curve with a large enough effect; inconclusive = small, poorly fitted or top-dose-only effect; inactive = no such curve, though single readings can be large or run the other way; tested in HEK293T cells; further: on the % scale 0 is the no-effect control and ±100 the full control effect; nearly all actives have a fitted effect of over 45% in size; luciferase light after 4 h
MARV entry inh: blocks Marburg virus binding to or entry into cells. Marburg virus pseudotyped entry inhibition, cell reporter; control for the full effect not named in the record; about a third of the inactives were read at about 46 µM. Potency, µM (highest dose often 37.8 µM), inactives show at the top dose activity change, negative = inhibition, most hits filed as inhibitors. 300,000 tested, 1.8% active. AID 540276; active = well fitted inhibition curve with a large enough effect; inconclusive = small, poorly fitted or top-dose-only effect, or effect the other way; inactive = flat fitted curve, though single readings scatter; tested in HEK293 cells; about a fifth of its hits are not listed in these tables; further: on the % scale 0 is the no-effect control and ±100 the full control effect; luciferase read-out
Lassa entry inh: inhibitors of Lassa virus binding or cell entry; Lassa virus pseudotype entry inhibition, cell reporter; control for the full effect not named in the record; Potency, µM (top dose mostly 37.9 µM), for the others: top-dose activity change, negative = inhibition, usual class: inhibitors; 300,000 tested, 1.2% active; AID 540256; active means well fitted inhibition curve with a large enough effect; inconclusive means small, poorly fitted or top-dose-only effect, or effect the other way; inactive means flat fitted curve, though single readings scatter; tested in HEK293 cells; further: on the % scale 0 is the no-effect control and ±100 the full control effect; nearly all actives have a fitted effect of over 50% in size; luciferase read-out
NS1 inh: inhibitors of influenza NS1 protein function; AID 2326; 270,000 tested, 0.4% active; Potency, µM (series often up to 46.1 µM), inactives show top-dose activity, positive = more growth; S. cerevisiae slowed by influenza A NS1, growth recovery by OD600; further: actives are rising curves; nearly all actives have a fitted effect of over 50% in size
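In this qHTS, NS1 from influenza A is expressed in budding yeast, where it slows growth. Cells are switched from glucose to 2% galactose medium (pH 6.0, -URA), treated with compound, and growth recovery is read at OD600.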
Cruzain noTriton: inhibitors of Trypanosoma cruzi cruzain without detergent; P25779; purified cruzain, Z-FR-AMC fluorescence, no detergent; Potency, µM, for inactives: max response, negative = inhibition, usual class: inhibitors; 200,000 tested, 2.3% active; active means well fitted curve in the direction sought with a large enough effect; inconclusive means small, poorly fitted or top-dose-only effect, or another doubt; inactive means no such curve, though single readings can be large; an effect the other way counts as inactive or inconclusive;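 further: plate controls were enzyme without inhibitor for no effect and buffer without enzyme for full effect; nearly all actives have a fitted effect of over 40% in size; top concentration of the series not given in the record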
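Detergent-free condition (0.00005% Triton X-100) in acetate buffer pH 5.5 with DTT. 1.5 nM enzyme and compound were pre-mixed 15 min, then 2 uM Z-FR-AMC substrate added; reaction progress from fluorescence change between first and third reads (60 s).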
Starred values were filed as active, the others as inactive; ? = inconclusive; . = no result given; & = joins results of further samples; [ ] = another dose, or the depositor's remark. Unless noted, the call rests on the fitted dose curve; in most records, active means well fitted rising curve with a large enough effect; inconclusive means small, poorly fitted or top-dose-only effect; inactive means no such curve, though single readings can be large or run the other way. Potency means the concentration at half of the fitted maximal effect.

Start of the listing, in advance:
Values run as follows: Cruzain inh Det, NS1 inh, Cruzain noTriton, RE007 growth inh, StopGo reporter, Lassa entry inh, MARV entry inh, SARS PLP yeast
COc1ccc(S(=O)(=O)N(CC(=O)NCCC(C)C)c2ccccc2)cc1OC
 : ., 1%, ., -4%, 8%, ?, ?, 0%
CCCCC(=O)Nc1nnc(SCC(=O)Nc2ccc(OC)cc2)s1
 : ., -14%, ., 1%, -17%, 13%, 4%, -6%
COc1ccc(NC(=O)c2cccc(N3CCCS3(=O)=O)c2)c(OC)c1
 : 1.1%, ., 0%, ., -4%, 9%[46.1 µM], ., .
COc1ccc(NC(=O)CCSc2ccc(C)cc2)cc1
 : -1.4%, 6%, -2%, -2%, 2%, 27%, 5%, -28%

This part in full, previewed entries included:
Values run as follows: Cruzain inh Det, NS1 inh, Cruzain noTriton, RE007 growth inh, StopGo reporter, Lassa entry inh, MARV entry inh, SARS PLP yeast
COc1ccc(S(=O)(=O)N(CC(=O)NCCC(C)C)c2ccccc2)cc1OC
 : ., 1%, ., -4%, 8%, ?, ?, 0%
CCCCC(=O)Nc1nnc(SCC(=O)Nc2ccc(OC)cc2)s1
 : ., -14%, ., 1%, -17%, 13%, 4%, -6%
COc1ccc(NC(=O)c2cccc(N3CCCS3(=O)=O)c2)c(OC)c1
 : 1.1%, ., 0%, ., -4%, 9%[46.1 µM], ., .
COc1ccc(NC(=O)CCSc2ccc(C)cc2)cc1
 : -1.4%, 6%, -2%, -2%, 2%, 27%, 5%, -28%
COc1ccc(F)cc1C(=O)C1CCCN(Cc2cccn2-c2ccccn2)C1 (centres undefined)
 : ., -3%, ., -2%, -29%, 10µM*, ?, -1%
CCOC(=O)C1CCN(Cc2cnc(Oc3ccc(N)cc3)s2)CC1
 : -0.8%, ?, -2%, -3%, 25%, ?, 9%, -4%
O=C(/C=C\c1ccc(-c2cccc([N+](=O)[O-])c2)o1)N1CCOCC1
 : ., -8%, ., -13%, 18%, -4%[46.1 µM], ?, -3%
CCN(C(=O)c1ccc(S(C)(=O)=O)cc1)C12CC3CC(CC(C3)C1)C2
 : -3.7%, -11%, 13%, 4%, ?, ?, ?, -12%
COC(=O)c1oc2ccc(Cl)cc2c1N
 : -12%, -15%, -1%, -27%, 45%[activator], -1%, 3%, -8%
Cc1c(CCN)ccc2c1[nH]c1ccccc12
 : ., 3%, ., -16%, 16%, ., ., -2%
Cc1ccc(-c2nnn(CC(=O)N(c3ccccc3F)C(C(=O)NCC3CCCO3)c3c[nH]c4ccccc34)n2)cc1 (centres undefined)
 : -9.1%, 24%, ?, -6%, 39%[activator], ?, ?, 4%
O=C(CCNC(=O)c1ccc([N+](=O)[O-])cc1)Nc1nccs1
 : ., 7%, ., 19%, -1%, ., ., 0%
O=C(Nc1ccc(Br)cc1Cl)Nn1cnnc1
 : -12%, 5%, -18%, 12%, -23%, 0%, 1%, 4%
CCOc1ccccc1NC(=O)C(NS(=O)(=O)c1ccc2c(c1)CCC(=O)N2)c1ccccc1 (centres undefined)
 : 0.6%, ., ?, ., -7%, ?, 7%[46.1 µM], .
Cc1cc(C(=O)OCn2nnc3ccccc3c2=O)c(C)n1-c1ccccc1
 : -11%, ?, -23%, 7%, 27%, ?, -3%, -1%
Cc1ccccc1NC(=O)COc1coc(CN2CCN(c3ccccc3)CC2)cc1=O
 : ., ., ., -11%, ?, -7%, -18%, 2%
Cc1ccc(-c2ccc(/C=N\NC(=O)C3C(=O)NCC3c3ccccc3)o2)cc1Cl (centres undefined)
 : -13%, ?, -4%, -3%, -7%, ?, -26%, -5%
Cc1ccc(O)c(-c2cc(-c3cccc(Br)c3)n[nH]2)c1
 : ., 4%, ., ?, 34%[activator], -18%[46.1 µM], ?, 0%
Cc1ccc(-c2n[nH]c(=S)n2C)cc1
 : 1.9%, 13%, 4%, 15%, 22%, 12%, 5%, 1%
O=C(CC(NC(=O)c1ccccc1Cl)c1ccccc1)Nc1ccc2c(c1)OCO2 (centres undefined)
 : 2.9%, -15%, ?, -1%, 48%[activator], 6%, -40%, 4%
Cc1ccc(/C=C/c2onc(C)c2S(=O)(=O)N2CCC(C(=O)NCc3ccc(C)o3)CC2)cc1
 : -1.5%, ., 0%, ., -8%, -2%[46.1 µM], ., .
COc1ccc(C)cc1NC(=O)CN(C)S(=O)(=O)c1ccc2c(c1)CCCN2C(C)=O
 : -0.9%, -2%, 26%, 3%, -24%&-18%, -3%[46.1 µM], ., 7%
Cn1ncc2c(NCCO)nc(Cl)nc21
 : ., ., ., 15%, -1%, 0%, -15%, .
CC(=O)NC(=S)Nc1ccccc1N1CCCCC1
 : ., 7%, ., 2%, -14%, -21%, 12%[46.1 µM], 23%
CCCOc1ccc(NC(=O)C(=O)NCCCn2ccnc2)cc1
 : 4.0%, -5%, 7%, -9%, -23%, -1%, 22%, -3%
O=C(CSc1nnc(CNC(=O)c2ccc(F)cc2)o1)Nc1ccc2c(c1)OCCO2
 : ., -3%, ., 7%, 4%, 15%, 2%, 1%
CC(=O)Nc1ccc(-c2csc(NC=C3C(=O)OC(C)(C)OC3=O)n2)cc1
 : ., 5%, ., 0%, 59%[activator], ., ., -1%
O=C(CNC(=O)c1ccc(-c2ccccc2)cc1)OCc1c(F)cccc1Cl
 : -3.2%, ?, -18%, 4%, 12%, -4%, ?, 21%
N#C/C(=N\Nc1ccc(Cl)c(Cl)c1)C(=O)C1CC1
 : ., -128%, ., ?, -9%, ?, ?, -9%
Cc1noc(NS(=O)(=O)c2ccc(NC(=O)C(C)(C)C)cc2)c1C
 : ., -4%, ., 3%, 4%, 2%, 9%[46.1 µM], 1%
Cc1cccc(NS(=O)(=O)c2cccc(C(=O)N3CCN(c4ccccn4)CC3)c2)c1
 : ., -51%, ., -13%, 19%, ?, ?, -1%
COc1ccc(COC(=O)CN2C(=O)NC3(CCCC3)C2=O)cc1F
 : ., ., ., 16%, -10%, ?, -14%[46.1 µM], 3%
CCSc1ncc(Cl)c(C(=O)Nc2ccc(S(=O)(=O)N3CCCCC3)cc2)n1
 : -8.2%, ., -5%, ., -3%, -28%[46.1 µM], ?, .
CCCCN(CC)C(=O)Cn1c(=O)n(-c2ccc(OCC)cc2)c(=O)c2c3c(sc21)CCC3
 : -0.7%, ., -10%, ., -4%, 9%[46.1 µM], -16%[46.1 µM], .
COc1ccc(CNC(=O)c2cc(-c3ccncc3)nc3c(C)cc(C)cc23)cc1OC
 : ., 6%, ., 7%, ?, -21%, ?, -1%
CS(=O)(=O)N(CC(=O)N1CCCCCC1)c1cccc(Cl)c1Cl
 : ., 7%, ., -9%, -6%, ., ., -3%
COc1ccc(CCNC(=O)CCS(=O)(=O)c2ccc3nc(C)sc3c2)cc1OC
 : ., 0%, ., -14%, -3%, ., ., 0%
Clc1cccc(Cl)c1CSc1nnc(-c2ccncc2)s1
 : ., -1%, ., 3%, 14%, 0%, 0%[46.1 µM], 0%
Cn1cccc1C(=O)NCc1ccc(S(N)(=O)=O)cc1
 : ., 3%, ., 1%, -11%, -15%, 12%[46.1 µM], 2%
O=C(COC(=O)COc1cccc(C(F)(F)F)c1)NC(=O)NC1CCCCC1
 : ., ., ., 8%, -22%, 9%[46.1 µM], 3%, -7%
CCn1cc(/C=C(\NC(=O)c2ccc(C)cc2)C(=O)NCCCN2CCOCC2)c2ccccc21
 : ., -12%, ., -3%, -5%, ., ., -1%
O=C(O)c1cc(Cl)c(Cl)cc1C(=O)Nc1cccc2ncccc12
 : -4.8%, 4%, 10%, -1%, -2%, -4%, ?, -21%
CC1(C)OC(=O)N(NCc2ccccc2)C1(C)O (centres undefined)
 : ., 1%, ., 9%, 6%, ., ., -2%
COCCNC(=O)C(c1ccc(C)cc1)N(Cc1ccccc1)C(=O)CCC(=O)Nc1ccccn1 (centres undefined)
 : ., -1%, ., 3%, 1%, ., -8%[46.1 µM], 0%
C/C(=N\NC(=O)c1ccc(Cl)c(Cl)c1)c1cccc(NC(=O)C(C)C)c1
 : -2.4%, -4%, -7%, -1%, -17%, -9%, -12%, -3%
Cc1nc2ccccc2c(=O)n1-c1cccc(C(F)(F)F)c1
 : ., -11%, ., 19%, -17%, 24%, 27%, -5%
CCNC(=O)NC(=O)C(C)OC(=O)c1oc2ccc(OC)cc2c1C (centres undefined)
 : -3.0%, -4%, 1%, 17%, 5%, -7%, -6%, 6%
O=C(OCC(=O)N1N=C(c2ccc(Cl)cc2)CC1c1ccco1)c1ccccc1O (centres undefined)
 : -8.9%, -4%, ?, 1%, -16%, ?, ?, 8%
O=S(=O)(c1ccc(N2CCCC2)nc1)N1CCCC1
 : ., -2%, ., 3%, -10%, -10%, 18%[46.1 µM], 2%
CC(=O)N1[C@H](Cc2ccccc2)C=C[C@]1(C)C(=O)NCCc1c[nH]c2ccccc12
 : -1.9%, -24%, ?, -7%, 5%, ?, 35%, -4%
CC(C(=O)O)n1cc(Cl)cn1 (centres undefined)
 : ., ., ., 0%, -4%, -1%[46.1 µM], 17%[46.1 µM], -4%
CCOc1ccc(CCNC(=O)C2=C(C)C(=O)OC23CCC(C)CC3)cc1OCC (centres undefined)
 : -0.9%, ., ?, 1%, -19%&-6%, -3%[46.1 µM], ?, -1%
CCOCCCNC(=O)Cn1nc(-c2ccccc2)ccc1=O
 : 0.6%, -31%, -3%, 3%, 0%, 17%, 18%, 6%
C[C@H](NC(=O)N1CCn2c1nc1ccccc12)C(=O)NCc1ccco1
 : ., -2%, ., 3%, 51%[activator], -7%[46.1 µM], 9%[46.1 µM], -1%
Cc1cccc(NS(=O)(=O)c2ccc3c(c2)CCN3C(=O)CCC(=O)O)c1C
 : 3.1%, ., -16%, ., -13%, 12%[46.1 µM], 11%[46.1 µM], .
CC1(C(=O)O)C=CCN1C(=O)c1ccccc1 (centres undefined)
 : -1.5%&3.2%, 9%, 0%&-12%, 2%, -11%, 0%, 2%, 3%

Screening results: PubChem BioAssay, National Center for Advancing Translational Sciences (NCATS)
